UBC13 inh: UBC13 polyubiquitin chain formation inhibitors, primary screen, biochemical, TR-FRET, uHTS; Ubiquitin-conjugating enzyme E2 N (Homo sapiens), P61088; inhibition, % at 20 µM; actives 0.47% (n = 330,000); in the data active = inhibition above about 45%, passing the limit was not always enough
HKDC1 inhibitor: HKDC1 hexokinase inhibitors, primary screen, biochemical, fluorescence, uHTS | Q2TB90 | recombinant HKDC1, G6PDH/diaphorase resazurin coupled fluorescence | inhibition, % at 20 µM | actives 0.16% (n = 340,000) | AID 493160, 2011;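 active = inhibition above about 35% when tested at 20 µM, limit read from the data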;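 note: plate controls were DMSO wells with enzyme for no effect and DMSO wells lacking enzyme for full effect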
Target sequence (Q2TB90 whole entry, looked up): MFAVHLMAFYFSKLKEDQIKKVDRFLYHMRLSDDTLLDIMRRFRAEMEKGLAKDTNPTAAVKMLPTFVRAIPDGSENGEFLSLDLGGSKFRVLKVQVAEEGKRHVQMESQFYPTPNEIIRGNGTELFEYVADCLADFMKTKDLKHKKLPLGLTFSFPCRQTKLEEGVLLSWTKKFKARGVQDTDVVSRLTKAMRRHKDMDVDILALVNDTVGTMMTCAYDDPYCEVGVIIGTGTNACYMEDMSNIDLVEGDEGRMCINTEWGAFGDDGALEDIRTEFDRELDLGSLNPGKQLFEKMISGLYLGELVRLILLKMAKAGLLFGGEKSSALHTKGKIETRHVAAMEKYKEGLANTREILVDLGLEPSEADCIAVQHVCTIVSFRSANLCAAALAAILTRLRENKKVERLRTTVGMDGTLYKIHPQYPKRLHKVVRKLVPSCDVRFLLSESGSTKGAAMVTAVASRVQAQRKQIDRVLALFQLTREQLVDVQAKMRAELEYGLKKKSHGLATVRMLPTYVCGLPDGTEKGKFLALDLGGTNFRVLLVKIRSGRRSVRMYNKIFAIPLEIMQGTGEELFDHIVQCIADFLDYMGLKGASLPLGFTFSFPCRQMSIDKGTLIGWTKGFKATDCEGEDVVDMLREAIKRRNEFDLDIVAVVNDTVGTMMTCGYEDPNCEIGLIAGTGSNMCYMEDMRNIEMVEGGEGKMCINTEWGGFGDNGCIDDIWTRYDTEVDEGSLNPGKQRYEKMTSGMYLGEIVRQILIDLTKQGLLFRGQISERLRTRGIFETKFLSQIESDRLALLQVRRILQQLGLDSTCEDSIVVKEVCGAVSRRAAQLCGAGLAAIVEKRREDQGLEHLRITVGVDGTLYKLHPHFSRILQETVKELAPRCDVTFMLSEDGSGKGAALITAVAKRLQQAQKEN
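Assay system: recombinant HKDC1 hexokinase; detection: coupled resazurin fluorescence, excitation 525 nm, emission 613 nm; benchmarks: DMSO-plus-enzyme-mix negative control, buffer-substituted positive control; compound dosing: single 20 µM dose; schedule: 90 min at room temperature in dark; also added: glucose plus 1 mM ATP as hexokinase substrates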
SENP7 inh: SENP7 protease inhibitors, primary screen, biochemical, luminescence, uHTS. Sentrin-specific protease 7 (Homo sapiens), Q9BQF6. recombinant SENP7, Z-RLRGG-aminoluciferin luminescence, 40 min. inhibition, % at 5 µM. actives 1.5% (n = 330,000);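 active = inhibition above about 50% at the single test dose, limit read from the data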;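 note: plate controls were DMSO with enzyme for no effect and no enzyme buffer wells for full effect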
Gli-Sufu block: Gli-Sufu pathway antagonists, primary screen, luciferase luminescence, Sufu-KO-LIGHT cells, uHTS; actives 0.74% (n = 340,000); Sufu-KO-LIGHT fibroblasts, Gli luciferase reporter luminescence; inhibition, % at 5 µM;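 active = inhibition above about 55%, limit read from the data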;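 note: 0% = DMSO-treated cells and 100% = wells with medium but no cells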
SENP8 inh: SENP8 protease inhibitors, primary screen, biochemical, luminescence; purified SENP8, Z-RLRGG-aminoluciferin cleavage; Sentrin-specific protease 8 (Homo sapiens), Q96LD8; inhibition, % at 10 µM; actives 1.2% (n = 330,000); in the data active = inhibition above about 50%
Starred values were filed as active, the others as inactive; & = joins results of further samples. A portion of the library; the hit share may differ from the screen's.

SMILES | UBC13 inh | HKDC1 inhibitor | SENP7 inh | Gli-Sufu block | SENP8 inh
CC(C)CCOC(=O)c1c(N)n(CC2CCCO2)c2nc3ccccc3nc12 (configuration not stated) | 18 | 11 | 9 | 7 | -1
S=c1[nH]c2ccccc2[nH]1 | 3 | -9 | -3 | -1 | -4
CCC(C)NC(=O)c1c(N)n(Cc2ccc3c(c2)OCO3)c2nc3ccccc3nc12 (configuration not stated) | 11 | 20 | 68* | -8 | 92*
CN1CC[C@]23c4c5ccc(O)c4OC2C(O)C=CC3[C@H]1C5 (some centres not stated) | 2 | 0 | 4 | 0 | 5
COc1ccc(Cc2nccc3cc(OC)c(OC)cc23)cc1OC | -25 | 3 | 45 | 33 | 27
COc1ccc2c(c1OC)C(=O)O[C@@H]2[C@H]1c2cc3c(cc2CCN1C)OCO3 | -2 | -4 | 5 | -2 | 1
COc1ccc(Cn2c(N)c(C(=O)NCc3ccco3)c3nc4ccccc4nc32)cc1 | -47 | 7 | 28 | 7 | 25
C[C@]12CC[C@H](O)C[C@H]1CC[C@@H]1C2CC[C@]2(C)[C@@H](C3=CC(=O)OC3)[C@@H](O)C[C@]12O (some centres not stated) | 13 | -3 | 15 | -5 | 0
CN(C)[C@@H]1C(=O)C(C(N)=O)=C(O)[C@@]2(O)C(=O)C3=C(O)c4c(O)cccc4[C@@](C)(O)C3[C@H](O)C12 (some centres not stated) | -3 | 20&15 | 9 | 9&24 | 3
N#CCCCCC#N | 8 | 4 | 1 | 2 | 4
Cc1ccn2nc(S(=O)(=O)Nc3c(F)cccc3F)nc2n1 | 0 | -8 | 7 | -2 | 4
C[C@]12CCC3C(CC[C@H]4CC(=O)CC[C@]34C)C1CCC2=O (some centres not stated) | -6 | 8 | -2 | 6 | -12
O=C(O)COc1ccc(Cl)cc1Cl | 17 | -1 | 4 | -16 | 0
COc1ccc(Cn2c(N)c(C(=O)NCc3ccco3)c3nc4ccccc4nc32)cc1OC | -22 | 18 | 38 | -15 | 52*
C[C@]12CCC(=O)C=C1CCC1C2CC[C@@]2(C)C1CC[C@@H]2O (some centres not stated) | 7 | -3 | 3 | 5 | -6
CCCCCCn1c(N)c(C(=O)NCCN2CCOCC2)c2nc3ccccc3nc21 | -1 | 9 | 22 | -9 | 7
CC(Cc1ccc(O)cc1)NCC(O)c1cc(O)cc(O)c1 (configuration not stated) | 5 | -5 | 10 | -2 | 2
CC(C)(O)C(=O)Nc1ccc([N+](=O)[O-])c(C(F)(F)F)c1 | -5 | -5 | 0 | 23 | 2
CN[C@@H](C)[C@@H](O)c1ccccc1 | -3 | -8 | 1 | -4 | 10
CCC/C=N/O | -2 | -4 | 8 | -2 | 7
CCCC[N+]1(C)C2CC(OC(=O)C(CO)c3ccccc3)CC1C1OC12 (configuration not stated) | 2 | -7 | 7 | 4 | 0
COc1ccc2c3c([nH]c2c1)C(C)=NCC3 | 15 | -9 | 1 | 0 | 3
COCCCn1c(N)c(C(=O)OC(C)COC)c2nc3ccccc3nc21 (configuration not stated) | -13 | 0 | 26 | 1 | 13
CCCNC(=O)c1c(N)n(CC2CCCO2)c2nc3ccccc3nc12 (configuration not stated) | 0 | 17 | 79* | 14 | 94*

Compounds listed so far with nitrogen in an aromatic ring (eleven):
SMILES | UBC13 inh | HKDC1 inhibitor | SENP7 inh | Gli-Sufu block | SENP8 inh
CC(C)CCOC(=O)c1c(N)n(CC2CCCO2)c2nc3ccccc3nc12 (configuration not stated) | 18 | 11 | 9 | 7 | -1
S=c1[nH]c2ccccc2[nH]1 | 3 | -9 | -3 | -1 | -4
CCC(C)NC(=O)c1c(N)n(Cc2ccc3c(c2)OCO3)c2nc3ccccc3nc12 (configuration not stated) | 11 | 20 | 68* | -8 | 92*
COc1ccc(Cc2nccc3cc(OC)c(OC)cc23)cc1OC | -25 | 3 | 45 | 33 | 27
COc1ccc(Cn2c(N)c(C(=O)NCc3ccco3)c3nc4ccccc4nc32)cc1 | -47 | 7 | 28 | 7 | 25
Cc1ccn2nc(S(=O)(=O)Nc3c(F)cccc3F)nc2n1 | 0 | -8 | 7 | -2 | 4
COc1ccc(Cn2c(N)c(C(=O)NCc3ccco3)c3nc4ccccc4nc32)cc1OC | -22 | 18 | 38 | -15 | 52*
CCCCCCn1c(N)c(C(=O)NCCN2CCOCC2)c2nc3ccccc3nc21 | -1 | 9 | 22 | -9 | 7
COc1ccc2c3c([nH]c2c1)C(C)=NCC3 | 15 | -9 | 1 | 0 | 3
COCCCn1c(N)c(C(=O)OC(C)COC)c2nc3ccccc3nc21 (configuration not stated) | -13 | 0 | 26 | 1 | 13
CCCNC(=O)c1c(N)n(CC2CCCO2)c2nc3ccccc3nc12 (configuration not stated) | 0 | 17 | 79* | 14 | 94*
